# hNpr1 antagonist: Natriuretic polypeptide receptor (hNpr1) antagonism - Primary qHTS | AID 1347048, 2019 | Atrial natriuretic peptide receptor 1 (Homo sapiens), P16066 | HEK293 hNpr1 GloSensor cGMP, ANP-stimulated luminescence | Potency, µM (titrated, usually from 46.3 µM), for inactives: top-dose activity change, negative = inhibition, most hits filed as inhibitors | 1.6% of 76,000 active; active = well fitted inhibition curve with a large enough effect; inconclusive = small, poorly fitted or top-dose-only effect; inactive = no such curve, though single readings can be large or run the other way;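 further: nearly all actives have a fitted effect of over 60% in size; nearly all hits also lower the signal before the agonist is added; a reference antagonist and vehicle were the controls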
# Target sequence (P16066 whole entry, looked up): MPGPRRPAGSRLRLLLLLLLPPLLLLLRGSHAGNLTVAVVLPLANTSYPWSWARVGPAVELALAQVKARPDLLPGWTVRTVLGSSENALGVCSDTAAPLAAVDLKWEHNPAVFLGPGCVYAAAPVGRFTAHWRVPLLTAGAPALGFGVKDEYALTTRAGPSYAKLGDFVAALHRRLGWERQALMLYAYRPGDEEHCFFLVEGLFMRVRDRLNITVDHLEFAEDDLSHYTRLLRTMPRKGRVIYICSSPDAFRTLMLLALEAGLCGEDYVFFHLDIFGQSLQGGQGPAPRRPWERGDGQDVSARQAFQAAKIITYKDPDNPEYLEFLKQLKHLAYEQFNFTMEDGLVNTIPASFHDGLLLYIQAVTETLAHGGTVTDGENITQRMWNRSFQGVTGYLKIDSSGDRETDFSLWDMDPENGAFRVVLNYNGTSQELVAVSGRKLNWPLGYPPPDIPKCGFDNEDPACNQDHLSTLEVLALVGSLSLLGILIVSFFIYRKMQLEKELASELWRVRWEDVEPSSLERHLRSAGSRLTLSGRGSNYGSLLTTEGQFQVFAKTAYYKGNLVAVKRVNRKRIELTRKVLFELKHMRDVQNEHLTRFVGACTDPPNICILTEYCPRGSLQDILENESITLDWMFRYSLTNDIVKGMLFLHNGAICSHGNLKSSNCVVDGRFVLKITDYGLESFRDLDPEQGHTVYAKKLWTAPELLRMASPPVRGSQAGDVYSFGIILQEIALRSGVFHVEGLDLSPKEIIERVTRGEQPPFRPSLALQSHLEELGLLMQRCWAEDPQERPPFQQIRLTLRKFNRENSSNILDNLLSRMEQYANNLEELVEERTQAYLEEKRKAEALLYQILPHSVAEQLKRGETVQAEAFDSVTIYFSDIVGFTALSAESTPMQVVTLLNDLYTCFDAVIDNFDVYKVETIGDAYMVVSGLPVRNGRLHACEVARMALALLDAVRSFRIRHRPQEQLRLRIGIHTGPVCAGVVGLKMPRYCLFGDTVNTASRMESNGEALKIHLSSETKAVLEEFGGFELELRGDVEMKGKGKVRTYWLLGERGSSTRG
#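 Compound pre-incubated 30 min at room temperature on GloSensor-loaded HEK293 cells stably carrying hNpr1 and the pGS-40F cGMP biosensor. Stimulation uses hNppA at 0.1 nM final; luminescence is taken at baseline and 20 min post-agonist.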
# * = called active by the depositor; ? = inconclusive; [ ] = dose if it differs, or a comment. On the % scale 0 is the no-effect control and ±100 the full control effect; potency means the concentration at half of the fitted maximal effect. An excerpt, so the mix of outcomes need not match the whole.
hNpr1 antagonist	SMILES
30%	O=C(c1ccccn1)N1CCC2(CNc3ccccc3[S+](=O)([O-])N2)C1 (centres undefined)
?	N#Cc1ccc(CN2CCCC3(C2)NC(=O)c2ccccc2O3)cc1 (centres undefined)
3%	CC(C)N1C[C@H](O)C[C@H]1c1nnc2n1CCN(C(=O)CCc1c[nH]c3ccccc13)CC2
-13%	CC(C)C[C@@H]1N[C@H](C(=O)NCc2ccco2)Cc2cn(Cc3nccn3C)c3cccc1c23
-6%[70.6 µM]	COc1ccc(-c2noc([C@@H]3C[C@H](NCc4ccc(F)cc4)CN3C)n2)cc1
-7%	Cc1cc(=O)n(CC(=O)Nc2ccc(C)c(Cl)c2)c(N2CCc3ccccc3C2)n1
0%	c1cc(-c2cnn(CCN3CCOCC3)c2)ccc1OCCN1CCCC1
1%[70.6 µM]	CN(C)Cc1cc(C[C@@H]2C[C@H](NC(=O)Nc3ccccc3)C2(C)C)no1
0%	O=C(NCc1ccncc1)C1CN(C(=O)c2ccc(F)cc2)CC12CCOCC2 (centres undefined)
-1%	COc1cc(=O)n2c(c1C(=O)N1CCN(c3ccccc3C)CC1)CCCC2
4%	CCCc1ccc(CN2CCCC(CCOC)(C(=O)O)C2)o1 (centres undefined)
-22%[70.6 µM]	O=C(Cc1c[nH]c2ncc(-c3cccc(CO)c3)cc12)N1CCOCC1
4%	CN1CC(c2ccccc2)CC2(CCN(C(=O)CCN3CCCC3=O)CC2)C1 (centres undefined)
-2%[70.6 µM]	CN1CCC(N2CC[C@H](c3nnc(-c4cccnc4)o3)C2)CC1
0%[70.6 µM]	COC[C@H]1C[C@@H](NC(=O)c2c(-c3ccccc3)noc2C)[C@H](O)[C@@H]1O
0%	CC1CCN(C(=O)Cn2ccn3nc(-c4ccc(F)cc4)c(CO)c3c2=O)CC1
3%	CS(=O)(=O)N1CCC(C2CCN(C(=O)Cc3cccs3)C2)CC1 (centres undefined)
-29%[70.6 µM]	COc1ccc(CN2CCc3nc(C(=O)NCc4cccc(F)c4)oc3CC2)cc1
1%	Cc1ccccc1N1Cc2c(ncnc2N2CCC(O)CC2)N(C)CC1=O
28µM*	c1ccc(CN2CCNc3cnc(-c4ccc(N5CCOCC5)cc4)cc3C2)cc1
2%	COc1cccc2c1OCCCN(C(=O)c1cn(C/C=C/c3ccccc3)nn1)C2
-6%	COc1ccc(N(C)C(=O)c2ccc3c(c2)N(S(C)(=O)=O)CC3)cc1
0%	Cn1ncc(N2CCCC(CC(=O)NCCc3cccnc3)C2)cc1=O (centres undefined)
8%	COc1ccccc1NC(=O)Cn1nc2n(c1=O)CCCCC2

# 4 entries from above in a different format.
SMILES: c1ccc(CN2CCNc3cnc(-c4ccc(N5CCOCC5)cc4)cc3C2)cc1
  hNpr1 antagonist = 28µM*
SMILES: COc1ccc(CN2CCc3nc(C(=O)NCc4cccc(F)c4)oc3CC2)cc1
  hNpr1 antagonist = -29%[70.6 µM]
SMILES: Cn1ncc(N2CCCC(CC(=O)NCCc3cccnc3)C2)cc1=O (centres undefined)
  hNpr1 antagonist = 0%
SMILES: CS(=O)(=O)N1CCC(C2CCN(C(=O)Cc3cccs3)C2)CC1 (centres undefined)
  hNpr1 antagonist = 3%

# Additional structures follow:
hNpr1 antagonist	SMILES
0%	O=C(Cc1ccccc1F)NCCC1CCN(C(=O)Nc2cc(F)ccc2F)CC1
-25%[70.6 µM]	COc1ccc(CN2CC(c3ncc4c(-c5ccccc5)nccn34)C2)cc1O
5%[70.6 µM]	COc1ccc(-c2noc([C@@H]3C[C@@H](O)CN3C3CCCCC3)n2)cc1
-1%[70.6 µM]	O=C(C[C@@H]1CCNC[C@@H]1Cc1cc(-c2ccc(F)cc2)on1)NCc1ccccc1
0%	COCCC(=O)N[C@H]1CC[C@]2(C)CC[C@@H](C(C)C(=O)NC3CCCCC3)[C@H](O)[C@H]2[C@@H]1C (some centres undefined)
1%	CCCS(=O)(=O)N1CCC(C2CCNC2)CC1 (centres undefined)
2%	CC(=O)N[C@@H]1CCNC[C@@H]1c1nc(-c2ccccc2)no1
-7%[70.6 µM]	CC(C)C[C@@H]1N[C@H](C(=O)NCCN2CCCC2)Cc2c[nH]c3cccc1c23
-5%[70.6 µM]	COc1cccc(-c2cc(C(=O)NCc3cc(C)on3)c3c(c2)N(C)CCO3)c1OC
0%[70.6 µM]	CCNC(=O)Nc1ccc([C@@H](O)[C@H]2COCC(=O)N2CCOCC)cc1
-15%	CCc1ccc(C(=O)N2CCC(Cc3nc(-c4cnccn4)no3)CC2)cc1
-2%	c1ccc(OCCCn2cc(-c3cncnc3)nn2)cc1
-5%	OCC1CN(Cc2ccc(Br)cc2)CC12CCNCC2 (centres undefined)
13%[70.6 µM]	CC(C)(C)CNc1cc(Cl)nc2ccnn12
-13%[70.6 µM]	CC(C)N1CC[C@H](c2nc3ccc(C#N)cc3[nH]2)C1
-5%[70.6 µM]	CN1CCC(NC[C@H]2COCc3nc4cc(F)ccc4n32)CC1
?	O=C1[C@H]2CN(Cc3ccc(OC(F)(F)F)cc3)C[C@H]2C(=O)N1Cc1ccc2c(c1)OCO2
3%	Cc1c(C(F)(F)F)nc(-c2ccc(CN3CCNCC3)cc2)[nH]c1=O
-5%	Cc1ccc(OCC(=O)N2CC[C@@](O)(C3CCOCC3)[C@H](C)C2)cc1
5%[70.6 µM]	CN1C(=O)COC[C@@H]1[C@H](O)c1ccc(NC(=O)c2cnccn2)cc1
-1%	COCCN1CC(CO)C2(CCN(C(=O)COc3cccc(C)c3)CC2)C1 (centres undefined)
1%[70.6 µM]	Cc1noc(C)c1-c1cc(-c2ccc([S+](C)(=O)[O-])cc2)cn2cncc12
-1%	CN(CCc1ccccn1)C(=O)c1cn(CCN2CCNCC2)nn1
5%	O=C(c1ccco1)N1CCC(N2C(=O)C(OCC3CC3)C23CCOCC3)CC1 (centres undefined)
-21%	CCC(C(=O)Nc1ccc2c(c1)CN(Cc1cc(F)cc(F)c1)C(=O)CO2)c1ccccc1 (centres undefined)
-10%	CCOc1ccccc1CN1C[C@@H]2C(=O)N(CCN3CCc4ccccc4C3)C(=O)[C@@H]2C1
-1%	COc1cc(OC)cc(C(=O)NCC2CCCN(Cc3cnn(C)c3C)C2)c1 (centres undefined)
1%	CN(C)CC1(O)CCC2(CCN(C(=O)C3(c4ccccc4)CC3)CC2)CC1
3%	COCCCn1c(C)cnc1CC1CCN(C(=O)Nc2ccc(C)c(C)c2)CC1
-5%	CCOc1ccc(CC(=O)N2[C@@H]3CC[C@H]2CC(NC(=O)c2cnc(C)cn2)C3)cc1 (some centres undefined)
0%	O=C(c1cc(C2CC2)[nH]n1)N1CCC2(CCCN(CC3CCC3)C2=O)C1 (centres undefined)
4%[70.6 µM]	CC(=O)NC1(C)CCCN(Cc2cc(-c3cccc(C(F)(F)F)c3)cs2)C1 (centres undefined)
-13%	COc1ccc(CNC(=O)C[C@@H]2CCNC[C@@H]2Cc2cc(-c3ccc(OC)cc3)on2)cc1
?	COc1ccc(OC)c(CNC(=O)c2cccc3c2CCN3C(=O)c2ccc(F)cc2)c1
-5%	CCCS(=O)(=O)N1CC(C(=O)NCCc2ccncc2)C2(CCOCC2)C1 (centres undefined)
-2%[70.6 µM]	Cc1ccc2c(c1)C(C[C@H]1CN(C(=O)C3CCCC3)CC[C@H]1CC(=O)O)=NCC2
-6%	CC(C)CNC(=O)NCC1Cn2cccc2C(=O)N1Cc1ccccc1 (centres undefined)
-2%[70.6 µM]	C=CCNC(=O)c1cccn2cncc12
-1%	CNC(=O)[C@@H]1CN(C(=O)Cc2ccsc2)C[C@H]1c1n[nH]c(C)n1
1%	COc1cc(-c2ccc(-c3nc(CC(C)C)no3)cn2)cc(OC)c1OC

# Structures listed above printed as active in hNpr1 antagonist:
hNpr1 antagonist	SMILES
28µM*	c1ccc(CN2CCNc3cnc(-c4ccc(N5CCOCC5)cc4)cc3C2)cc1

# Next section.
hNpr1 antagonist	SMILES
?	Cc1nc(C(=O)N2CCOc3c(O)cc(-c4cccc(Cl)c4)cc3C2)cs1
0%	C=C(C)CN(CC)C(=O)c1c(C)oc2c1CN(Cc1cccc(F)c1)CC2
1%	CC[C@@]1(C(=O)O)C[C@H](C(=O)NCc2ccccn2)[C@H](c2ccc(OC)cc2)N1C
-2%	Cc1ccc(C)c(-n2cc(CN(C)CCO)c(-c3ccccc3)n2)c1
6%	CCn1cnnc1-c1nn(C)c2c1CN(C(=O)C(C)c1ccccc1)CC2 (centres undefined)
-1%	CCNC(=O)c1cccnc1OC1CCN(C(=O)CC2CCCCC2)C1 (centres undefined)
2%	CNC(=O)CCC[C@@H]1[C@H]2CCCN3CCC[C@@H](CN1C(=O)CCOC)[C@@H]23
3%	CS(=O)(=O)N(C1CCOCC1)C1CN(C(=O)Nc2ccccc2)C1
2%	CC(=O)Nc1cc(C(=O)NC2CCCCC2)c2ccc(C)nc2c1
-1%	Cn1nc2c(c1NC(=O)Cn1nc3c(cc1=O)CCCCC3)CSC2
-14%	COCCC(=O)N1CCc2nnc([C@@H]3C[C@@H](O)CN3C(C)C)n2CC1
17%	COc1cccc([S+](=O)([O-])N2CCC3(CC2)CNC(=O)c2ccccc2O3)c1
-6%	Cc1ccc(C)c(S(=O)(=O)N2[C@@H]3CC[C@H]2CC(NC(=O)c2ccc(F)cc2)C3)c1 (some centres undefined)
-6%[70.6 µM]	CN1CCC(Nc2ccc3c(n2)CN(Cc2ccc(F)cc2)C(=O)CO3)CC1
3%	O=C(Cn1nc2n(c1=O)CCCCC2)Nc1ccc(C(F)(F)F)cc1
9%	O=C(Cn1nc2c(cc1=O)CCCC2)NCCc1ccco1
5%	OCC#Cc1csc(CN2CCCC3(CCNCC3)CC2)c1
4%	CCc1noc(-c2cn(C3CCN(C(=O)c4cccc(NC(C)=O)c4)C3)nn2)n1 (centres undefined)
4%	FC(F)(F)SCCn1ccnc1-c1cc2n(n1)CCCNC2
0%	COc1ccc2n[nH]c(CN3CCC(C(C)N4CCCC4)CC3)c2c1 (centres undefined)
-20%	Cc1ncccc1OC1(C(=O)O)CCN(C(=O)C2CC23CCC3)CC1 (centres undefined)
0%	COc1cc(OC)cc(C(=O)N2CCC(n3cc(-c4nc(C(C)C)no4)nn3)CC2)c1
-10%	O=C1COCC2(CN1Cc1ccc(F)cc1Cl)CN(c1ccc(C(F)(F)F)cn1)C2
-5%	Cc1cccc(C(=O)NC(CC(C)C)c2nnc3n2CCNCC3)n1 (centres undefined)

# 4 of the compounds above, as labelled records:
CCc1noc(-c2cn(C3CCN(C(=O)c4cccc(NC(C)=O)c4)C3)nn2)n1 (centres undefined)
  hNpr1 antagonist: 4%

FC(F)(F)SCCn1ccnc1-c1cc2n(n1)CCCNC2
  hNpr1 antagonist: 4%

COc1ccc2n[nH]c(CN3CCC(C(C)N4CCCC4)CC3)c2c1 (centres undefined)
  hNpr1 antagonist: 0%

Cc1ncccc1OC1(C(=O)O)CCN(C(=O)C2CC23CCC3)CC1 (centres undefined)
  hNpr1 antagonist: -20%

# The list goes on.
hNpr1 antagonist	SMILES
5%	COc1cccc(CN2CCCCCCNC(=O)CC2)c1
-3%	NC(=O)C1CCN(c2cc(-c3noc([C@@H]4CCCN4Cc4ccccc4F)n3)ccn2)CC1
1%	COc1ccccc1N1CCN(C(=O)C2CCCN(C(=O)c3ccccc3)CCC(=O)NCC2)CC1 (centres undefined)
-13%	CC(C)Cc1cn(C2CCN(Cc3cc4c(cc3Cl)OCO4)CC2)nn1
0%	CCC(CC)NC(=O)CC1CCCN(c2cnn(CC)c(=O)c2)C1 (centres undefined)
-1%	CCN1C(=O)C2(CCN(C(=O)COC)CC2)c2ccccc21
-21%	Cc1nc(N2CCN(C(=O)COc3ccccc3)CC2)cc(C(F)(F)F)n1
6%	COC(=O)[C@H](Cc1ccc(OC)cc1)NC(=O)[C@@H]1CN(C(=O)c2cccc(F)c2)CCN1C(C)=O
2%	COc1ccc(C2(C(=O)NC3CCCN(c4ncccn4)C3)CC2)cc1 (centres undefined)
-28%[70.6 µM]	COc1ccc(C2=NOC3(CCN(Cc4ccsc4)C3)C2)cc1 (centres undefined)
0%[70.6 µM]	COc1cccc(N2CC(C(=O)NCc3cccs3)NC2=O)c1 (centres undefined)
1%	O=C(c1cccc2[nH]ccc12)N1CC(Oc2cccc(-c3nc(-c4ccccc4)no3)c2)C1
-2%	Cc1cc(-c2ccccc2)nc(CN2CC[C@@](O)(C3CCC3)[C@H](C)C2)n1
6%[70.6 µM]	CN(Cc1ccccc1C(F)(F)F)C(=O)C1CC1
-23%[70.6 µM]	Cn1nccc1CN1CCC2(CC1)CC(=O)c1ccccc1O2
-5%	COc1ccc(NC(=O)N2C[C@@H]3C[C@H](C2)c2ccc(NS(=O)(=O)c4ccc(OC)cc4)c(=O)n2C3)cc1
-5%	Cc1cccc(C)c1-c1nc(C(=O)NCCc2ccc(Cl)cc2)n2ccccc12
-18%	CCC1(C(=O)NCc2cccc(F)c2)CCCCC(=O)N1 (centres undefined)
-2%	CCC1c2nccn2CCCN1C(=O)CCc1c(C)nn(C)c1C (centres undefined)
0%	CCC(=O)N(C1CCOCC1)C1CCN(S(=O)(=O)c2ccc(F)c(C)c2)CC1
-1%	CCn1ccnc1CN1CCC2(CCC(=O)N(CCc3ccncc3)C2)CC1
2%	CCOc1ccc2c(n1)CCN(C(=O)c1sccc1C)C2
3%	O=C(Cn1nc2n(c1=O)CCCC2)Nc1cccc(C(F)(F)F)c1
-4%	O=C(CSc1ccccn1)N[C@@H]1CCOC[C@H]1OCc1cscn1
